# Compound activity deposited in PubChem by National Center for Advancing Translational Sciences (NCATS).
# GLA inh pH 4.5 – alpha-galactosidase A (human) inhibition, pH 4.5; P06280; purified enzyme, 4-MU-alpha-Gal fluorescence, pH 4.5; activity change, negative = inhibition, % at 105 µM; 230,000 tested, under 10 active; AID 1467; inconclusive = small, poorly fitted or top-dose-only inhibition, or a rising curve; inactive = flat fitted curve, though single readings scatter; no compound was filed as active;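 note: 0% = full activity with enzyme and -100% = basal without enzyme; dose as in the result columns while the protocol names 77 µM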
# Target sequence (P06280 whole entry, looked up): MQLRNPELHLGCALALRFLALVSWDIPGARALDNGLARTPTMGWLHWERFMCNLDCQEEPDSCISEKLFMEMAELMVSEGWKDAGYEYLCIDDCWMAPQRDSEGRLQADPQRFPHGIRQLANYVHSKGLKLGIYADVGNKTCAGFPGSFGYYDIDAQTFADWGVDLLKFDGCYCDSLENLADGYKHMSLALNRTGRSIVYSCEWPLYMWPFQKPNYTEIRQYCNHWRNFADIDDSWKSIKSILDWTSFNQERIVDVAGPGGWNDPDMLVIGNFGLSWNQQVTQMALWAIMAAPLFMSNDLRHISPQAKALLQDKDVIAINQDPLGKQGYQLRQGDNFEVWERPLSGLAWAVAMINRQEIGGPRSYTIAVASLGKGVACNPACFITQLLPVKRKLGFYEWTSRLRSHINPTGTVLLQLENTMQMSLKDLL
# Rango release inh – prevents RanGTP from dissociating the Rango-importin beta complex; Biochemical FRET Rango-importin beta, RanGTP-induced dissociation; O95149+P62826; Potency, µM (doses to about 46.1 µM), for the others: top-dose activity change, negative = inhibition; AID 540253; actives 0.071% (n = 340,000); active means falling FRET ratio curve, often poorly fitted, with flat reads before Ran was added; inconclusive means other falling curves, or compound fluorescence or quenching; inactive means flat or rising ratio curve;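 note: potency is the fitted concentration of half-maximal effect; % of control where 0% means no effect; nearly all actives have a fitted effect of over 45% in size; -100% = wells without RanGTP and RCC1; the record marks most hits as doubtful in a second field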
#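 Compounds preincubate 5 min with complex of recombinant Rango and importin beta in PBS with 1 mM DTT. Ran (0.6 uM) loaded with 2 mM GTP plus 0.2 uM RCC1 starts dissociation; FRET is recorded 45 min later.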
# miR-21 reporter – raises the signal of a miR-21 reporter | HeLa miR-21 FLuc reporter, luciferase, 48 h | Potency, µM (highest dose often 38.3 µM), for the others: at the highest dose reporter change, positive = more light | 340,000 tested, under 10 active | AID 2288; active = well fitted rising curve with a large enough effect; inconclusive = small, poorly fitted or top-dose-only effect; inactive = no such curve, though single readings can be large or run the other way;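 note: % of control where 0% means no effect; miR-21 action dims this reporter so a rising signal means less miR-21 action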
#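 Luminescence from a firefly luciferase reporter carrying a miR-21 binding site downstream, stably expressed under a CMV promoter in HeLa cells that make miR-21 endogenously, reports miRNA modulation after 48 h compound exposure up to approximately 40uM final.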
# Rango-impB inh – prevents formation of the Rango-importin beta complex. Potency, µM (titrated, usually from 92.2 µM), for the others: top-dose inhibition of complex formation. Rango CFP/YFP FRET sensor + importin beta, 45 min. Q14974. actives 0.031% (n = 340,000); active = rising FRET ratio curve, often small or poorly fitted; inconclusive = mostly compound fluorescence or quenching in the first reads; inactive = flat curves in all reads;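 note: potency is the fitted concentration of half-maximal effect; 0% = DMSO wells and 100% = buffer wells lacking importin beta; nearly all actives have a fitted effect of over 15% in size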
#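 Inhibition scored from the CFP 486 nm/YFP 530 nm FRET ratio 45 min after adding 0.125 microM importin beta to 50 nM Rango biosensor preincubated 5 min with compound (room temperature, PBS with DTT, Tween-20, BSA). No-importin wells as positive control.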
# * hit, by the source's call; ? = inconclusive; nt = not tested or not shown; & = joins results of further samples.
# Order of values – Rango-impB inh | miR-21 reporter | GLA inh pH 4.5 | Rango release inh
> Cc1cccc(OCCCCCn2ccnc2)c1
    -1.5% | 3% | 3 | -12%
> O=C(NCc1ccc(F)cc1)C1CCC(=O)N1CCc1ccccc1 (centres undefined)
    -2.9% | -2% | -11 | 2%
> Cn1c(=O)c2c(nc(CN3CCC(C(N)=O)CC3)n2Cc2ccccc2Cl)n(C)c1=O
    0.6% | -2% | 2 | -11%
> CSc1ccccc1NC(=O)CSc1n[nH]c(N)n1
    -1.3% | -2% | -2 | 0%
> Cc1ccc(S(=O)(=O)N2CCOCC2)cc1C(=O)OCC(=O)Nc1ccc2c(c1)OCO2
    -0.8% | -13% | 3 | -2%
> CCOc1ccc2nc(NC(=O)CSC3=NCCS3)sc2c1
    0.1% | -4% | 4 | -5%
> Cn1cnnc1Sc1ccc(C(=O)OCC(=O)NCC(F)(F)F)cc1[N+](=O)[O-]
    -3.5% | -4% | -3 | 17%
> CCOC(=O)C1C(=O)NC(SC)=C(C#N)C1c1ccccc1F (centres undefined)
    -4.0% | -8% | 3 | 0%
> CN1CCN(c2nc3ccccn3c(=O)c2C=O)CC1
    ? | -4% | nt | ?
> COCCn1c(-c2ccc(Cl)cc2Cl)nc2c(c(=O)c3ccccc3n2C)c1=O
    3.4% | -7% | -14 | -3%
> CCN=c1scc(C)n1/N=C/c1ccc(O)c(O)c1O
    -3.1% | -11% | -20 | -2%
> Cc1cc(C)n(CC2CC(=O)N(c3ccc(C)c(Cl)c3)C2=O)n1 (centres undefined)
    0.5% | -3% | 9 | -7%
> N#Cc1ccc(OCC(=O)N2CCN(C(=O)c3ccco3)CC2)cc1
    2.4% | nt | nt | -15%
> COc1ccccc1CN1CC(C(=O)NCc2cccnc2)CC1=O (centres undefined)
    -4.3% | -1% | -5 | -2%
> CCc1nnc(NC(=O)CCC(=O)N2CCN(c3cccc(Cl)c3)CC2)s1
    -1.5% | -1% | nt | 0%

# An excerpt from above with just GLA inh pH 4.5 and Rango-impB inh:
structure	GLA inh pH 4.5	Rango-impB inh
COCCn1c(-c2ccc(Cl)cc2Cl)nc2c(c(=O)c3ccccc3n2C)c1=O	-14	3.4%
Cc1cc(C)n(CC2CC(=O)N(c3ccc(C)c(Cl)c3)C2=O)n1 (centres undefined)	9	0.5%

# Next results
# Order of values – Rango-impB inh | miR-21 reporter | GLA inh pH 4.5 | Rango release inh
> Cc1nn(C)c(C(=O)N/N=C/c2ccccn2)c1[N+](=O)[O-]
    -4.7% | 1% | nt | 22%
> CCCCCC/C=C/c1ccc([C@H]2[C@H]3C=CC[C@@H](C)[C@@H]3C(=O)N2Cc2ccccc2)c(F)c1
    -3.4% | 1% | -5 | 24%
> Cc1ccc(C(=O)NCCCN2CCOCC2)cc1Cl
    2.9% | -23% | nt | -9%
> Cc1csc(NC(=O)c2ccccc2)n1
    0.2% | -31% | nt | -16%
> COc1cccc(Oc2nc(-c3ccccc3O)nc3ccccc23)c1
    0.0% | 3% | nt | -1%
> CCN(CC)CCCN(Cc1cc2cc3c(cc2[nH]c1=O)OCO3)C(=S)NC
    4.6% | -5% | nt | -16%
> O=C(c1ccccc1)c1cc2ccccc2o1
    1.2% | -51% | 0 | 0%
> Cc1ccsc1/C=N\NC(=O)c1cc(C(C)(C)C)[nH]n1
    -0.1% | -67% | 1 | 14%
> CCN(Cc1ccc2c(c1)OCCO2)S(=O)(=O)c1ccc(NC(C)=O)cc1
    2.9% | nt | nt | -2%
> C[C@H](CO)N1C[C@H](C)[C@@H](CN(C)S(=O)(=O)c2cccs2)Oc2ccc(NS(=O)(=O)c3cn(C)cn3)cc2C1=O
    0.3% | nt | nt | 10%
> C=CCN=C(NC#N)SCCc1ccccc1
    -0.5% | -56% | 6 | -1%
> O=C(O)CN(c1ccccc1[N+](=O)[O-])S(=O)(=O)c1ccccc1
    1.4% | 3% | 3 | 12%
> CSC1=C(C#N)C(c2ccccc2Cl)C2=C(N1)c1ccccc1C2=O (centres undefined)
    -2.9% | -19% | 4 | -9%
> CN1c2ccccc2C2(C)CCCC3=Cc4cccc([N+](=O)[O-])c4OC312 (centres undefined)
    -1.9% | 2% | -3 | 2%
> c1ccc(-c2ccc(-c3[nH]ncc3CN3CCC(N4CCSCC4)CC3)cc2)cc1
    2.4% | -28% | -11 | -5%
> C[C@]12C=CC(=O)C=C1CC[C@@H]1[C@@H]2C(=O)C[C@@]2(C)[C@H]1CC[C@]2(O)C(=O)COC(=O)CCC(=O)O
    3.5% | -7% | nt | 11%
> O=C(C1CCCN(Cc2cccs2)C1)N1CCCCCC1 (centres undefined)
    0.8% | -3% | 6 | -20%
> O=C1Nc2ccc([N+](=O)[O-])cc2OC1CCN1CCCC1 (centres undefined)
    ? | -2% | -2 | -12%
> Cc1nn(Cc2ccccc2)c(=O)c2nn(-c3ccc(Cl)cc3)c(C)c12
    0.2% | -12% | 0 | 1%
> O=[N+]([O-])c1ccc(C2CCCC/C2=N/OCc2ccccc2F)c([N+](=O)[O-])c1 (centres undefined)
    -0.7% | 0% | -7 | 1%
> COCCCN1C(=O)c2ccc(C(=O)Nc3ccc(OC)cc3OC)cc2C1=O
    -1.3% | -5% | -2 | 2%
> N/C(=N\c1nc2ccccc2o1)NC(=O)C(Cc1ccccc1)N1C(=O)c2ccccc2C1=O (centres undefined)
    -0.1% | 0% | -1 | 12%
> CCc1ccc(NC(=O)C2CCN(S(=O)(=O)c3ccc4c(c3)NC(=O)CO4)CC2)cc1
    0.4% | 17% | nt | 9%
> Cc1ccc(C(=O)NNC(=O)c2ccc(NS(=O)(=O)c3cccs3)cc2)s1
    -0.7% | nt | nt | 29%
> CC1CCCCC12NC(=O)N(CC(=O)OCC(=O)Nc1ccc(F)cc1[N+](=O)[O-])C2=O (centres undefined)
    1.3% | nt | nt | -8%
> Cc1cc(Br)ccc1SCC(=O)N1CCN(S(=O)(=O)c2ccccc2)CC1
    -1.3% | -29% | nt | -1%
> O=S(=O)([O-])CCC[n+]1c(SCCCS(=O)(=O)O)sc2ccc(Cl)cc21
    2.6% | -5% | -3 | 16%
> Cc1cn(-c2ccccc2)c(C)c1/C=N\Nc1nc(N2CCOCC2)nc(N2CCOCC2)n1
    5.4% | -1% | 3 | 3%
> O=C(NCc1cccnc1)C1c2ccccc2C(=O)N1C1CCCCCC1 (centres undefined)
    -0.2% | -6% | 10 | 7%
> COC1=CC(=Cc2c(N)n3nc(CC(=O)N4CCCCC4)sc3nc2=O)C=C(OC)C1=O
    ? | 2% | nt | ?
> CC(C)(C)OC(=O)N1CCC[C@@H]1CO
    2.8% | nt | nt | -3%
> COc1ccccc1CC(=O)NCCN1CCCCC1
    -1.6% | -3% | nt | -6%
> CCOc1ccc(CCNC(=O)COC(=O)c2ccc(OC(C)C)cc2)cc1OCC
    1.7% | nt | nt | 1%
> CCC(CC)C(=O)Nc1cc(Cl)ccc1C
    nt | 2% | -10 | nt
> COc1ccc(N2CCN(C(=O)COC(=O)c3ccc(CSC)o3)CC2)cc1
    0.0% | nt | nt | 5%
> CC(C)(C)C(=O)CSc1nc(N)cc(=O)[nH]1
    -1.4% | 1% | 2 | 1%
> Cc1nc(SCC(=O)Nc2ccccc2C(F)(F)F)c2c(=O)n(C)c(=O)n(C)c2n1
    3.9% | nt | nt | 2%
> O=C(Nc1ccc(F)cc1)Nc1ccccc1F
    -1.2% | -25% | 8 | -13%
> CCOc1cc(Cl)c(NC(=O)c2ccco2)cc1OCC
    -1.2% | -4% | 2 | -4%
> CCOC(=O)CSC1=C(C#N)C(c2ccccc2)C(C(C)=O)=C(C)N1 (centres undefined)
    -6.5% | -12% | -17 | -4%
> O=C(Cn1cnc2c(cnn2-c2ccccc2)c1=O)OCc1ccccc1
    -1.3% | -32% | -1 | -4%
> COc1ccc(NC(=S)Nc2ccc(C)c(Cl)c2)cc1OC
    -1.0% | -2% | 9 | 1%
> Cc1cc(C)cc(NCc2ccncc2)c1
    -1.9% | -1% | nt | 18%
> Cc1ccccc1NC(=O)CN1C(=O)C2C3CC(C(Br)C3Br)C2C1=O (centres undefined)
    -0.1% | -4% | -7 | -10%
> COC(=O)c1c(NC(=O)C2c3ccccc3Oc3ccccc32)sc(C)c1C
    -0.1% | -1% | -28 | -7%
> CCN(C(=O)CSc1n[nH]c(-c2ccc(OC)cc2)n1)c1c(N)n(Cc2ccccc2)c(=O)[nH]c1=O
    0.7% | nt | nt | -5%
> CCn1c(CNc2ccccc2Cl)nnc1SCC(=O)OC1CCCCC1
    -1.2% | -11% | -11 | 8%
> CC(=O)NC(CC(=O)Nc1ccc(S(=O)(=O)NC2=NCCCCC2)cc1)c1ccccc1 (centres undefined)
    0.2% | nt | nt | -24%
> COC(=O)c1ccc(C(=O)OC)c(NC(=O)COC(=O)C2CCC(C(C)(C)C)CC2)c1 (centres undefined)
    -1.2% | 0% | -7 | -19%
> O=C(CCC(=O)Nc1ccc(Br)cc1)N/N=C/c1ccccc1O
    0.9% | 16% | nt | -16%
> CCc1ccc(NC(=O)CSc2nnc(C)c(=O)n2N)cc1
    ? | 3% | nt | -7%
> O=C(NC1=NCCS1)c1cc(-c2cccs2)nc2ccccc12
    -2.8% | -2% | 7 | -9%
> Cc1ccc(S(=O)(=O)c2nc(-c3cccs3)oc2N2CCC(C(N)=O)CC2)cc1
    -0.2% | nt | nt | -11%
> Cc1ccc(NS(=O)(=O)c2ccc3[nH]c(=O)oc3c2)c(C)c1
    2.7% | -15%&-3% | nt | 3%
> O=C(O)c1cnn2c(C(F)(F)F)cc(-c3ccccc3)nc12
    -1.0% | -3% | 3 | 0%
> CCC(/C=N/NC(=O)C1COc2ccccc2O1)CC (centres undefined)
    -4.1% | -5% | -1 | 3%
> CCC(Sc1nncn1C)C(=O)Nc1nnc(-c2ccc(Cl)cc2)s1 (centres undefined)
    -2.7% | -11% | 1 | 8%
> O=C(CSc1nncs1)NNC(=O)c1ccccc1Br
    0.4% | nt | nt | 0%
> NS(=O)(=O)c1ccc(CNC(=O)/C=C/c2c(F)cccc2Cl)cc1
    2.1% | -17% | 4 | 5%
> CCC(=O)Nc1nc(C)c(-c2csc(Nc3ccccn3)n2)s1
    1.4% | -28% | -2 | -19%

# New compounds follow
# Order of values – Rango-impB inh | miR-21 reporter | GLA inh pH 4.5 | Rango release inh
> O=c1[nH]c2cc(NCCO)c([N+](=O)[O-])cc2[nH]1
    4.3% | -21% | -8 | 20%
> CCNC(=O)CN(c1ccc(C)cc1)S(=O)(=O)c1ccccc1
    -0.5% | -4% | -5 | 4%
> CN(C)c1cccc(C(=O)OCCNC(=O)c2cccc(S(=O)(=O)N3CCOCC3)c2)c1
    9.9% | 16% | 2 | -11%
> Cc1ccnc(SCCn2c(N3CCC(C)CC3)nc3c2c(=O)n(C)c(=O)n3C)n1
    -0.1% | nt | nt | 7%
> COc1cc(C)c(NC(=S)Nc2ccc(Cl)c(Cl)c2)cc1OC
    0.7% | 5% | 2 | -15%
> COC(=O)c1ccc(NC(=O)CN2CCN(c3ccccc3C)CC2)cc1
    0.4% | -5% | 2 | 5%
> O=c1c2ccccc2nnn1CSc1nnc(Nc2ccccc2)s1
    0.0% | -15% | 0 | 5%
> CCOC(=O)c1ccc(NC(=O)C(=O)NCC2CCCO2)cc1 (centres undefined)
    -1.3% | -19% | -7 | -10%
> CC(=O)N/C(=C/c1ccc(OC(F)F)cc1)C(=O)O
    1.8% | -1% | 1 | 9%
> O=C(NNC(=O)c1cc(OCC(F)(F)F)ccc1OCC(F)(F)F)c1ccc(Cl)c(Cl)c1
    -4.0% | 13% | 0 | -14%
> CC(NC(=O)c1sc2ccccc2c1Cl)C1CCCO1 (centres undefined)
    4.4% | -69% | -5 | 8%
> Cc1ccc(C)c(NC(=O)CN(C)S(=O)(=O)c2ccc(F)cc2)c1
    -0.1% | 0% | -2 | -1%
> O=C(COc1cccnc1[N+](=O)[O-])Nc1ccc2c(c1)OC(F)(F)O2
    5.5% | -7% | -2 | 11%
> CCCNC(=O)c1cc(SC)ccc1Cl
    -1.6% | -5% | -5 | -4%
> CC1(C)C(c2cccs2)=[N+]([O-])C2(CCCCC/C2=N\NC(N)=O)N1O (centres undefined)
    -0.3% | -9% | 3 | 11%
> CCOC(=O)c1cc(C#N)c(SCC(N)=O)[nH]c1=O
    ? | -1% | 2 | -6%

# Only part of the results is shown; count on the stated rates, not on these rows.
